HIV Env fusion = inhibitors of HIV-1 Env-driven cell-cell fusion, primary screen, HeLa-JRFL effector, CEM21 target cells, luciferase. inhibition, % at 12.3 µM. 360,000 compounds, 1.1% hits;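 active means mean replicate inhibition score of at least 50 and every replicate individually at or above 50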;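 further: 0% = plate neutral controls and 100% = maraviroc near 300 nM; one replicate is shown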
Yeast UUG start = modulators of yeast start codon fidelity, primary screen, whole organism, S. cerevisiae, single point, plate reader | S. cerevisiae UUG-firefly luciferase reporter, luminescence/redox ratio | activity score, % at 18.7 µM | 350,000 compounds, 0.13% hits | AID 602363, 2012;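 active means replicate mean at a twofold rise or more, about +100% in these data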;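 further: firefly luciferase made from a UUG start codon reports start codon fidelity; reporter light over untreated wells divided by growth signal over untreated wells; some hits fall short of that in this replicate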
Starred values were filed as active, the others as inactive; [ ] = dose if it differs, or a comment. An excerpt (hit frequency here may not be typical).

SMILES	HIV Env fusion	Yeast UUG start
C[C@H]1CN([C@@H](C)CO)C(=O)c2cc(NC(=O)CCN3CCOCC3)ccc2O[C@@H]1CN(C)S(=O)(=O)c1ccc(F)cc1	-16[16.7 µM]	10
COc1ccc(CN(C)C[C@@H]2OCCCC[C@@H](C)Oc3ccc(NC(=O)CCCN(C)C)cc3C(=O)N([C@@H](C)CO)C[C@H]2C)cc1	6[16.7 µM]	-8
C[C@@H]1CN([C@H](C)CO)C(=O)c2cc(N(C)C)ccc2O[C@@H](C)CCCCO[C@@H]1CN(C)C(=O)C1CCCCC1	-11[16.7 µM]	2
C[C@H]1CN([C@@H](C)CO)C(=O)Cc2cc(NC(=O)Cc3cn(C)c4ccccc34)ccc2O[C@H]1CN(C)C(=O)Nc1ccc2c(c1)OCO2	-23[16.7 µM]	-1
CCC(=O)Nc1ccc2c(c1)OC[C@@H](C)N(C(=O)c1cnccn1)C[C@@H](C)[C@H](OC)CN(C)C2=O	4[16.7 µM]	1
C[C@@H]1CCCCO[C@H](CN(C)C(=O)Nc2ccccc2)[C@@H](C)CN([C@H](C)CO)C(=O)c2cc(NS(C)(=O)=O)ccc2O1	-3[16.7 µM]	-7
COc1cccc(NC(=O)N(C)C[C@H]2Oc3ncc(C#Cc4ccccc4)cc3C(=O)N([C@@H](C)CO)C[C@@H]2C)c1	7[16.7 µM]	-20
CC(C)NC(=O)Nc1ccc2c(c1)C(=O)N([C@@H](C)CO)C[C@@H](C)[C@@H](CN(C)S(=O)(=O)c1cccs1)O2	-12[16.7 µM]	2
C[C@H]1CN([C@@H](C)CO)C(=O)c2cc(C3=CCCC3)cnc2O[C@@H]1CN(C)C(=O)Nc1ccccc1	-27[16.7 µM]	5
C[C@H](CO)N1C[C@H](C)[C@@H](CN(C)S(C)(=O)=O)Oc2ccc(NS(=O)(=O)c3cccs3)cc2CC1=O	3[16.7 µM]	-6
C[C@@H]1CN([C@@H](C)CO)C(=O)c2cc(NS(=O)(=O)c3cn(C)cn3)ccc2O[C@@H](C)CCCCO[C@H]1CN(C)Cc1ccccc1	-8[16.7 µM]	-8
C[C@H]1CN([C@@H](C)CO)C(=O)c2cccc(NS(=O)(=O)c3cn(C)cn3)c2O[C@H]1CN(C)C(=O)Nc1ccc(F)cc1	11[16.7 µM]	1
CO[C@@H]1CN(C)C(=O)c2cc(NC(=O)Nc3ccccc3Cl)ccc2OC[C@H](C)NC[C@@H]1C	-2[16.7 µM]	1
CCC(=O)Nc1ccc2c(c1)C(=O)N(C)[C@@H]1CC[C@H](CC(=O)NCc3ccccc3)O[C@@H]1CO2	-2[16.7 µM]	-18
C[C@@H]1CN([C@H](C)CO)C(=O)c2cccc(NC(=O)C3CCOCC3)c2O[C@@H]1CN(C)S(=O)(=O)c1ccc(F)cc1	4[16.7 µM]	1
C/C=C/c1ccc2c(c1)O[C@H](CN(C)C(=O)c1cccnc1)[C@H](C)CN([C@H](C)CO)S2(=O)=O	19[16.7 µM]	-5
C[C@H](CO)N1C[C@H](C)[C@@H](CN(C)C(=O)Nc2cccc3ccccc23)OCCCC[C@H](C)Oc2ccc(N(C)C)cc2C1=O	67*[16.7 µM]	5
O=C(Nc1ccccc1F)N[C@H]1CC[C@@H](CCNC(=O)C2CCCC2)O[C@H]1CO	10[16.7 µM]	0
C[C@H]1CCCCO[C@@H](CN(C)C)[C@@H](C)CN([C@@H](C)CO)C(=O)c2cc(NC(=O)C3CCCCC3)ccc2O1	7[16.7 µM]	14
C[C@@H]1CN([C@@H](C)CO)C(=O)c2cccc(NC(=O)Nc3ccc(C(F)(F)F)cc3)c2O[C@@H]1CN(C)Cc1ccc(Cl)c(Cl)c1	-4[16.7 µM]	-17
O=C(C[C@@H]1C=C[C@@H](NC(=O)C2CCOCC2)[C@H](CO)O1)Nc1ccc(-c2ccccc2)cc1	-2[16.7 µM]	-6
CCNC(=O)C[C@@H]1CC[C@@H]2[C@H](COc3ccc(NC(=O)c4cccs4)cc3C(=O)N2C)O1	19[16.7 µM]	-3
CCC(=O)N[C@H]1CC[C@H](CC(=O)OC)O[C@@H]1CO	30[16.7 µM]	-13
C[C@H](CO)N1C[C@H](C)[C@@H](CN(C)Cc2ccc(C(F)(F)F)cc2)Oc2c(NC(=O)c3cnccn3)cccc2C1=O	14[16.7 µM]	-11
COc1ccccc1-c1ccc2c(c1)O[C@@H](CN(C)C(=O)Nc1ccccc1)[C@@H](C)CN([C@H](C)CO)S2(=O)=O	-32[16.7 µM]	-5
CCCN1C[C@@H](C)[C@@H](OC)CN(C)C(=O)c2ccc(NC(=O)COC)cc2OC[C@H]1C	5[16.7 µM]	4
C[C@@H]1CN([C@H](C)CO)C(=O)c2cccc(NC(=O)Nc3cccc4ccccc34)c2O[C@@H]1CN(C)Cc1ccncc1	-21[16.7 µM]	4
Cc1ccc(S(=O)(=O)N[C@@H]2CC[C@H](CCNC(=O)C3CCOCC3)O[C@H]2CO)cc1	4[16.7 µM]	-4
CC(C)NC(=O)N(C)C[C@@H]1OCCCC[C@@H](C)Oc2ccc(NS(=O)(=O)c3ccc(F)cc3)cc2C(=O)N([C@@H](C)CO)C[C@@H]1C	-25[16.7 µM]	0
COc1ccc(S(=O)(=O)N(C)C[C@@H]2OCCCC[C@H](C)Oc3ccc(NC(=O)Cc4ccccc4)cc3C(=O)N([C@@H](C)CO)C[C@H]2C)cc1	-8[16.7 µM]	-6
C[C@@H]1CN([C@H](C)CO)C(=O)c2cc(NC(=O)NC3CCCCC3)ccc2O[C@@H](C)CCCCO[C@H]1CN(C)S(=O)(=O)c1ccc(F)cc1	8[16.7 µM]	-12
C[C@H]1CN([C@@H](C)CO)S(=O)(=O)c2ccc(/C=C/c3ccccc3)cc2O[C@H]1CN(C)C(=O)c1cccnc1	-6[16.7 µM]	-7
C[C@H]1CCCCO[C@H](CN(C)S(=O)(=O)c2cn(C)cn2)[C@@H](C)CN([C@@H](C)CO)C(=O)c2cc(NC(=O)c3ccccc3)ccc2O1	24[16.7 µM]	-4
C[C@H]1CN([C@@H](C)CO)C(=O)c2cc(C#CC3CCCC3)cnc2O[C@H]1CN(C)S(C)(=O)=O	-1[16.7 µM]	-1
C[C@H]1CN([C@@H](C)CO)C(=O)c2cccc(NC(=O)c3cnccn3)c2O[C@H]1CN(C)Cc1ccc(C(=O)O)cc1	-4[16.7 µM]	-5
C[C@@H]1CN([C@@H](C)CO)C(=O)Cc2cc(N(C)C)ccc2O[C@@H]1CN(C)S(=O)(=O)c1cccs1	23[16.7 µM]	6
CCCC(=O)Nc1ccc2c(c1)C(=O)N(C)C[C@@H](OC)[C@@H](C)CN(C(=O)c1ccccc1F)[C@@H](C)CO2	-4[16.7 µM]	-2
C[C@@H]1CN([C@H](C)CO)C(=O)Cc2cc(NS(=O)(=O)c3cccs3)ccc2O[C@@H]1CN(C)S(C)(=O)=O	6[16.7 µM]	-4
C[C@@H]1CN([C@H](C)CO)C(=O)c2cc(N(C)C)ccc2O[C@@H]1CN(C)Cc1ccc(C(=O)Nc2ccccc2N)cc1	-5[16.7 µM]	-1
O=C(Cc1ccccn1)N[C@H]1CC[C@H](CCn2cc(-c3cccnc3)nn2)O[C@H]1CO	-3[16.7 µM]	5

11 neighbouring records out of the list so far, for reference:
SMILES	HIV Env fusion	Yeast UUG start
COc1ccc(S(=O)(=O)N(C)C[C@@H]2OCCCC[C@H](C)Oc3ccc(NC(=O)Cc4ccccc4)cc3C(=O)N([C@@H](C)CO)C[C@H]2C)cc1	-8[16.7 µM]	-6
C[C@@H]1CN([C@H](C)CO)C(=O)c2cc(NC(=O)NC3CCCCC3)ccc2O[C@@H](C)CCCCO[C@H]1CN(C)S(=O)(=O)c1ccc(F)cc1	8[16.7 µM]	-12
C[C@H]1CN([C@@H](C)CO)S(=O)(=O)c2ccc(/C=C/c3ccccc3)cc2O[C@H]1CN(C)C(=O)c1cccnc1	-6[16.7 µM]	-7
C[C@H]1CCCCO[C@H](CN(C)S(=O)(=O)c2cn(C)cn2)[C@@H](C)CN([C@@H](C)CO)C(=O)c2cc(NC(=O)c3ccccc3)ccc2O1	24[16.7 µM]	-4
C[C@H]1CN([C@@H](C)CO)C(=O)c2cc(C#CC3CCCC3)cnc2O[C@H]1CN(C)S(C)(=O)=O	-1[16.7 µM]	-1
C[C@H]1CN([C@@H](C)CO)C(=O)c2cccc(NC(=O)c3cnccn3)c2O[C@H]1CN(C)Cc1ccc(C(=O)O)cc1	-4[16.7 µM]	-5
C[C@@H]1CN([C@@H](C)CO)C(=O)Cc2cc(N(C)C)ccc2O[C@@H]1CN(C)S(=O)(=O)c1cccs1	23[16.7 µM]	6
CCCC(=O)Nc1ccc2c(c1)C(=O)N(C)C[C@@H](OC)[C@@H](C)CN(C(=O)c1ccccc1F)[C@@H](C)CO2	-4[16.7 µM]	-2
C[C@@H]1CN([C@H](C)CO)C(=O)Cc2cc(NS(=O)(=O)c3cccs3)ccc2O[C@@H]1CN(C)S(C)(=O)=O	6[16.7 µM]	-4
C[C@@H]1CN([C@H](C)CO)C(=O)c2cc(N(C)C)ccc2O[C@@H]1CN(C)Cc1ccc(C(=O)Nc2ccccc2N)cc1	-5[16.7 µM]	-1
O=C(Cc1ccccn1)N[C@H]1CC[C@H](CCn2cc(-c3cccnc3)nn2)O[C@H]1CO	-3[16.7 µM]	5

Continued:
SMILES	HIV Env fusion	Yeast UUG start
O=C(C[C@H]1CC[C@H](NC(=O)C2CC2)[C@H](CO)O1)NCc1ccncc1	-5[16.7 µM]	-18
C[C@@H]1CCCCO[C@@H](CN(C)C(=O)Nc2ccc(F)cc2)[C@H](C)CN([C@@H](C)CO)C(=O)c2cc(NS(=O)(=O)c3cn(C)cn3)ccc2O1	3[16.7 µM]	0
CC(C)NC(=O)N(C)C[C@@H]1Oc2cc(C3=CCCC3)ccc2S(=O)(=O)N([C@@H](C)CO)C[C@@H]1C	3[16.7 µM]	15
COC(=O)C[C@H]1CC[C@@H]2[C@H](COc3ccc(NC(=O)Nc4ccc(C)cc4)cc3C(=O)N2C)O1	-36[16.7 µM]	7
C[C@@H]1CN([C@H](C)CO)C(=O)Cc2cc(NS(C)(=O)=O)ccc2O[C@H]1CN(C)S(=O)(=O)c1cn(C)cn1	12[16.7 µM]	0
C[C@@H]1CCCCO[C@@H](CN(C)Cc2ccc(Cl)c(Cl)c2)[C@H](C)CN([C@@H](C)CO)C(=O)c2cc(NC(=O)Cc3ccccc3)ccc2O1	-55[16.7 µM]	15
COc1ccc(NC(=O)N[C@@H]2CC[C@H](CCNS(=O)(=O)c3cccc(Cl)c3)O[C@H]2CO)cc1	7[16.7 µM]	2
COc1ccc(S(=O)(=O)N(C)C[C@H]2OCCCC[C@@H](C)Oc3ccc(NS(=O)(=O)c4ccccc4)cc3C(=O)N([C@@H](C)CO)C[C@H]2C)cc1	-11[16.7 µM]	7
Cc1ccc(S(=O)(=O)N(C)C[C@H]2OCCCC[C@@H](C)Oc3ccc(NC(=O)Nc4ccc(F)cc4)cc3C(=O)N([C@H](C)CO)C[C@@H]2C)cc1	-14[16.7 µM]	-12
COC(=O)C[C@H]1CC[C@H]2[C@H](COc3ccc(NC(=O)c4ccc(F)cc4)cc3C(=O)N2C)O1	-1[16.7 µM]	-13
CC(C)NC(=O)N(C)C[C@@H]1Oc2ncc(-c3cncnc3)cc2C(=O)N([C@@H](C)CO)C[C@@H]1C	-7[16.7 µM]	-8
Cc1ccc(S(=O)(=O)N(C)C[C@@H]2OCCCC[C@H](C)Oc3ccc(NC(=O)NC4CCCCC4)cc3C(=O)N([C@H](C)CO)C[C@@H]2C)cc1	-51[16.7 µM]	-13
CCNC(=O)C[C@@H]1CC[C@H]2[C@H](COc3ccc(NC(=O)Nc4ccc(C)cc4)cc3C(=O)N2C)O1	15[16.7 µM]	3
C[C@H](O)C#Cc1cnc2c(c1)C(=O)N([C@H](C)CO)C[C@H](C)[C@H](CN(C)C(=O)c1ccc(F)cc1)O2	-15[16.7 µM]	10
COCC(=O)N(C)C[C@@H]1Oc2cc(C#CCC(C)C)ccc2S(=O)(=O)N([C@@H](C)CO)C[C@H]1C	-4[16.7 µM]	-3
C[C@H](CO)N1C[C@H](C)[C@@H](CN(C)CC2CC2)Oc2cc(C#C[C@@H](C)O)ccc2S1(=O)=O	12[16.7 µM]	-2
Cc1noc(C)c1S(=O)(=O)N(C)C[C@H]1OCCCC[C@@H](C)Oc2ccc(NC(=O)C3CCCCC3)cc2C(=O)N([C@@H](C)CO)C[C@H]1C	-47[16.7 µM]	3
CN1C(=O)c2cc(NC(=O)c3cccs3)ccc2OC[C@@H]2O[C@@H](CC(=O)NCC(F)(F)F)CC[C@@H]21	-11[16.7 µM]	4
Cc1ccc(S(=O)(=O)N(C)C[C@H]2Oc3ncc(C#CC4(O)CCCC4)cc3C(=O)N([C@H](C)CO)C[C@@H]2C)cc1	18[16.7 µM]	16
COCC(=O)Nc1ccc2c(c1)C(=O)N(C)C[C@H](OC)[C@@H](C)CN(C(=O)c1ccccc1F)[C@H](C)CO2	-5[16.7 µM]	-18
C[C@H](CO)N1C[C@H](C)[C@H](CN(C)S(C)(=O)=O)Oc2c(NC(=O)Nc3ccc(F)cc3)cccc2C1=O	-16[16.7 µM]	22
COc1ccccc1-c1cn(CC[C@@H]2CC[C@H](NC(=O)c3ccccc3F)[C@H](CO)O2)nn1	-16[16.7 µM]	-4
CS(=O)(=O)Nc1ccc2c(c1)[C@H]1C[C@H](CC(=O)NCc3ccccc3)O[C@@H](CO)[C@H]1O2	-1[16.7 µM]	-13
CCC(=O)N(C)C[C@@H]1Oc2ncc(-c3ccccc3OC)cc2C(=O)N([C@H](C)CO)C[C@@H]1C	-1[16.7 µM]	9
O=C(N[C@@H]1CC[C@H](CCn2cc(-c3ccc(F)cc3)nn2)O[C@@H]1CO)c1cnccn1	-8[16.7 µM]	7
COCC#Cc1cnc2c(c1)C(=O)N([C@H](C)CO)C[C@@H](C)[C@H](CN(C)C(=O)CN1CCOCC1)O2	6[16.7 µM]	11

Assay outcomes deposited in PubChem by Broad Institute.
